Screens from PubChem BioAssay.
nsP2pro inh: CHIKV nsP2 protease inhibition, primary qHTS; FRET peptide cleavage, nsP2pro, fluorescence 1 h; 1.1% of 31,000 active; Potency, µM (titrated, usually from 24.9 µM), for inactives: at the highest dose activity change, negative = inhibition, hits mostly inhibitors; Q8JUX6; AID 1964107; active means well fitted inhibition curve with a large enough effect; inconclusive means small, poorly fitted or top-dose-only effect; inactive means no such curve, though single readings can be large or run the other way; further: nearly all actives have a fitted effect of over 60% in size; a reference inhibitor and vehicle were the controls
Target sequence (Q8JUX6 whole entry, looked up): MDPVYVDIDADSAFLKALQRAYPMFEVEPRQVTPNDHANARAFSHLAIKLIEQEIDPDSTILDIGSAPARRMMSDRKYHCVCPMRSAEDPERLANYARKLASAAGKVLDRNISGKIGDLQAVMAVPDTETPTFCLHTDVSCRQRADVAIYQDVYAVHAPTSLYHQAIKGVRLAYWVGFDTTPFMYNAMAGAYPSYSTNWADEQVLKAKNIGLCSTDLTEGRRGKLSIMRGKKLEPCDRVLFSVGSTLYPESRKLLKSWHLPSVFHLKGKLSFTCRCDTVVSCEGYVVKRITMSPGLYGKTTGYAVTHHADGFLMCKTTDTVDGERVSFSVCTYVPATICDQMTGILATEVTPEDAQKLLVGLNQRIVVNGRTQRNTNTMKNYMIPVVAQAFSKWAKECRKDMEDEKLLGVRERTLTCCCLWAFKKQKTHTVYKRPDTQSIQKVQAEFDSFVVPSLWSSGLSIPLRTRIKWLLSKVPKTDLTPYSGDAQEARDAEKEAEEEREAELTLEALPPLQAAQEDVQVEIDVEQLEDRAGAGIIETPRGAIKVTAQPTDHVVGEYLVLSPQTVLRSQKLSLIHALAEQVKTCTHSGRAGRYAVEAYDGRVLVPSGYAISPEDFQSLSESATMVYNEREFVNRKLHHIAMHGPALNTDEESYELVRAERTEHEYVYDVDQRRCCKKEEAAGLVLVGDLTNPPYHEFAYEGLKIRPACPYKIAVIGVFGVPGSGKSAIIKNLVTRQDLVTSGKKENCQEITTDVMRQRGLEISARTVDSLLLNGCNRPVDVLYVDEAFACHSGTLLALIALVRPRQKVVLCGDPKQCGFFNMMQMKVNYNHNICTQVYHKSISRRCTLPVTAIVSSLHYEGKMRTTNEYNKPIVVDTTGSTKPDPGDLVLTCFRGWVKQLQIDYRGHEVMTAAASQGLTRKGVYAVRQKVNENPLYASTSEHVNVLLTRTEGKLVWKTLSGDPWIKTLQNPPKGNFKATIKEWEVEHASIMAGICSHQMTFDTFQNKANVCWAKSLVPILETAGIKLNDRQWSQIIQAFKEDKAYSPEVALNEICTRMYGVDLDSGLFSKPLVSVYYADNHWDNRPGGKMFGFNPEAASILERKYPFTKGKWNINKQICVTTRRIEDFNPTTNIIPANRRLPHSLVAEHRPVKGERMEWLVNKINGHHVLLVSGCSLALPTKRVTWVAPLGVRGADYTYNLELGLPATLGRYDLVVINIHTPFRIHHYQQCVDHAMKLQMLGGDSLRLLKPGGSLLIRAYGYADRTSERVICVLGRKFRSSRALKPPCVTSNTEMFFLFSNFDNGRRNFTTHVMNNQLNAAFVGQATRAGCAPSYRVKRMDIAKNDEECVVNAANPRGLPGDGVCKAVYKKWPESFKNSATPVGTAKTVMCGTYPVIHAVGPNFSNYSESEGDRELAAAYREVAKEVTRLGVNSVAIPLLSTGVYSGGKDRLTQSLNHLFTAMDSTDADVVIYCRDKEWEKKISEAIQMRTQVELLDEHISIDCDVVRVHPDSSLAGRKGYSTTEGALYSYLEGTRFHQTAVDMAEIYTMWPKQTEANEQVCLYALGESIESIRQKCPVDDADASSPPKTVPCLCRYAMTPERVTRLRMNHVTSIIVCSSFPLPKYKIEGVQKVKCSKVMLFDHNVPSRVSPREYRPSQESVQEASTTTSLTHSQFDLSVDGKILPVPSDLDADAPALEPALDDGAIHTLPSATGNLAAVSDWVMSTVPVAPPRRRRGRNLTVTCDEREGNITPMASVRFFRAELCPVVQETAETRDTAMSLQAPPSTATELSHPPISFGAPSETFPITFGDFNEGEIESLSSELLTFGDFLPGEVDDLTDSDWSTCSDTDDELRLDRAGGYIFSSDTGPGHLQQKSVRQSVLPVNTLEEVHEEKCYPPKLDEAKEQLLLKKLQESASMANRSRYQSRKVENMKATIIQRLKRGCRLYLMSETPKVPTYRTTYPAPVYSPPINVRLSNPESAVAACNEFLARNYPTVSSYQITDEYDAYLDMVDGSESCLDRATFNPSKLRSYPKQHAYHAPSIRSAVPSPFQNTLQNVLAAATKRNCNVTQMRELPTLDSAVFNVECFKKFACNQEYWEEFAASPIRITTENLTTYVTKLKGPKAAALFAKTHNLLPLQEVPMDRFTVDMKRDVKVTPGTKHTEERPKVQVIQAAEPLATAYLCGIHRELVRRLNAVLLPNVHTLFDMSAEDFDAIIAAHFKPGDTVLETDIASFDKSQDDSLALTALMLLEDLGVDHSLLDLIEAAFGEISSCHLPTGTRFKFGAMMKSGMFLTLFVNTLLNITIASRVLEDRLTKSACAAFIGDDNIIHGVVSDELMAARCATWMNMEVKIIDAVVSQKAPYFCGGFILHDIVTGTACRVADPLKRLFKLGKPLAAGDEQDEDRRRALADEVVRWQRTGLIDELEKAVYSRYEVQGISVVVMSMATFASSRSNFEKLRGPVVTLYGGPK
An asterisk follows results filed as active; i = inactive; ? = inconclusive; & = joins results of further samples; [ ] = remark or other dose. On the % scale 0 is the no-effect control and ±100 the full control effect; potency means the concentration at half of the fitted maximal effect. These rows are one share of the data; count on the stated rates, not on these rows.

SMILES	nsP2pro inh
O=C(NCc1ccc(F)cc1)C(=O)c1c[nH]c2ccccc12	20%
Cc1cccc(C(=O)N2CC[C@H]3C(=O)NCCCCCCN(Cc4ccncc4)[C@@H]3C2)c1	-14%
CCOC(=O)c1c(NC(=O)c2cc(CC)on2)sc(C(C)=O)c1C	-19%
c1ccc(C2(c3ccccc3)OC[C@@H]([C@H]3CCCCN3)O2)cc1	1%
NCCCC(=O)N1CCN(C2CCNCC2)C(=O)C1	?
O=C(O)CCCCn1c(SCC(=O)Nc2ccccc2C(F)(F)F)nc2ccsc2c1=O	-11%
CN1CCC(C(=O)N2Cc3ccccc3CC3(CCN(C)C3)C2)CC1 (stereo not drawn)	2%
CC(C)CCOc1ccc(Oc2nc(N(C)C)nc(N(C)C)n2)nn1	0%
CCC(=O)NC(c1ccco1)c1cc([N+](=O)[O-])c2cccnc2c1O (stereo not drawn)	-20%
Cc1c(Cl)c(C)[n+]([O-])c(Cl)c1-c1noc(-c2cc(O)c(O)c([N+](=O)[O-])c2)n1	57%[activator]
COc1ccc(-c2[nH]ncc2C(=O)NCc2cccc(F)c2)cc1	-8%
COc1ccc(S(=O)(=O)NCCNc2cc(C)nc3ccnn23)cc1	i
OCC(O)COc1ccc(Cl)cc1 (stereo not drawn)	-5%[78.4 µM]
O=C(c1n[nH]c2ccccc12)N1CCC(N2C(=O)C(OCC3CC3)C23CCCCC3)CC1 (stereo not drawn)	-6%
CC(C)(C)c1ccc(C(=O)CCCN2CCC(OC(c3ccccc3)c3ccccc3)CC2)cc1	4%
COC(=O)N1CCC2(CC1)C(=O)NN=C2c1ccncc1	-19%[39.2 µM]
Cc1ccc(CNC(=O)c2ccc(CSCc3ccc(Cl)cc3)o2)cc1	-40%
O=[N+]([O-])c1ccccc1S(=O)(=O)N1CCN(S(=O)(=O)c2ccc3c(c2)OCCO3)CC1	-4%
CCOC(=O)c1nn(-c2ccc(OC)cc2)c(=O)c2c(N)scc12	11µM*
CCn1nc(CC(C)C)cc1C(=O)N1CCN(S(=O)(=O)CC)CC1	i
CCC1CCCCN1C(=O)CCS(=O)(=O)c1cc2c(cc1C)NC(=O)CO2 (stereo not drawn)	-16%
Cc1ccccc1S(=O)(=O)Nc1cnccc1C(=O)Nc1nc(-c2ccccc2)cs1	i
Cc1ccc(N(C)C(=O)CN2C(=O)CCc3cc(S(=O)(=O)N4CCOCC4)ccc32)cc1	-12%
COCCCNC(=O)C1CCN(c2nn3cc(-c4ccc(F)cc4)nc3s2)CC1	-15%

Entries listed so far that have a nitro group on carbon (3):
SMILES	nsP2pro inh
CCC(=O)NC(c1ccco1)c1cc([N+](=O)[O-])c2cccnc2c1O (stereo not drawn)	-20%
Cc1c(Cl)c(C)[n+]([O-])c(Cl)c1-c1noc(-c2cc(O)c(O)c([N+](=O)[O-])c2)n1	57%[activator]
O=[N+]([O-])c1ccccc1S(=O)(=O)N1CCN(S(=O)(=O)c2ccc3c(c2)OCCO3)CC1	-4%

More records.
SMILES	nsP2pro inh
COCCNc1oc(-c2ccccc2)nc1S(=O)(=O)c1ccc(Br)cc1	-17%
CCC(=O)O[C@H]1C(C)(C)[C@H]([C@@H](O)C(=O)OC)[C@]2(C)C(=O)[C@@]1(O)[C@H]1O[C@]13C1CC(=O)O[C@@H](c4ccoc4)[C@]1(C)CCC32 (stereo partly drawn)	?
COC(=O)c1ccc2nc(CO[C@H]3CN(Cc4cccc(C#N)c4)C[C@H]3F)[nH]c2c1	0%[39.2 µM]
O=C1CCN(C(=O)CCc2nc3ccccc3s2)CCCCCCN1	3%
Cc1ccc(CN2CCC3(CC2)CCN(Cc2ccco2)CC3CO)s1 (stereo not drawn)	-15%
CC(=O)Nc1sc2c(c1-c1ccc(OC(F)(F)F)cc1)CCNC2	-2%
CCOc1cc(CNC(=O)CSc2n[nH]c(-c3ccccc3)n2)cc(OCC)c1OCC	-11%
CCC(=O)N1CCc2cc(Br)cc(S(=O)(=O)N3CCN(c4ccccc4OC)CC3)c21	-24%
CC(C)C(C#N)O[C@@H]1O[C@H](CO[C@@H]2OC[C@](O)(CO)[C@H]2O)[C@@H](O)[C@H](O)[C@H]1O (stereo partly drawn)	-16%
c1ccc2c(c1)OCC(CCn1ccnc1-c1cc3n(n1)CCNC3)O2 (stereo not drawn)	i
Cc1ccc(Cl)cc1NS(=O)(=O)c1cc2c(cc1F)NC(=O)CC2	3%
Cc1ccc(S(=O)(=O)Nc2ccc(NS(=O)(=O)c3ccc(C)cc3)c3ncccc23)cc1	i
O=C(COc1ccc(C(=O)c2ccccc2)cc1)NC1CCN(Cc2ccccc2)CC1	-2%
O=C(O)CCCCC1CCSS1 (stereo not drawn)	267%&18%[activator]
CCCC(=O)C1(c2ccccc2)CCN(C(=O)[C@@H](Cc2ccc(OC)cc2)NC(=O)[C@@H](N)Cc2cncn2C)CC1	151%[activator]
CCCCc1ncc(-c2c(-c3ccccc3)ncn2CCCn2ccnc2)[nH]1	i
O=C(NCCc1nc2ccccc2n1CCCc1ccccc1)C1CCCCC1	-15%
COc1ccc(CCNC(=O)CS(=O)Cc2nc(-c3ccc(C)cc3)oc2C)c(OC)c1 (stereo not drawn)	-19%
COc1ccc(N2CCN(C(=O)COc3cccc(-c4nnc5n4CCCC5)c3)CC2)cc1	-15%
CCn1cc(CNC(=O)c2cc(-c3ccc(C)c(C)c3)nc3ccccc23)c(C)n1	-20%
CCn1c(C(=O)NCc2ccc(OC(C)C)cc2)cc2oc3ccccc3c21	-6%
Cc1cccc(N2CCN(C(=O)Cc3c(C(=O)O)c(C)cn3C)CC2C)c1 (stereo not drawn)	-11%
COc1ccccc1CNC(=O)CN1CCCC(CO)(CC2CC2)C1 (stereo not drawn)	i
CC(C)=CCc1cc(C(O)C2NC(=O)CNC(=O)C(Cc3c[nH]c4ccccc34)NC(=O)C3CCCN3C(=O)CNC(=O)C(C(C)C)NC(=O)CNC2=O)ccc1O (stereo not drawn)	-4%[5.1 µM]
O=C(C1CCCN([S+](=O)([O-])c2cccs2)C1)N1CCC(N2CCCC2=O)CC1 (stereo not drawn)	-5%
CN[C@@H](C)C(=O)N1CC[C@H](NC(=O)Cc2cccs2)C[C@H]1C(=O)N[C@@H](Cc1ccc(OC)cc1)C(N)=O	i
Cc1ccc(CN2C(=O)[C@@H]3C[C@@H](O)CN3C3(CN(Cc4ccccc4Cl)C3)C2=O)o1	-18%[39.2 µM]
O=C(C1CCCC1)N1CC2(CCN(Cc3cccnc3)CC2)Cc2ccccc21	0%
O=C(O)c1ccc(OCCCOc2ccc(C(=O)O)cc2)cc1	3%
CCOC(=O)c1cccc(NC(=O)Cn2c(=O)nc(-c3ccccc3F)c3cc(Cl)ccc32)c1	-14%
Cc1cn(CCN2CCN(c3ccccc3-c3cc(C#N)cc(C(=O)NCCCN4CCCC4)c3)CC2)c2ccccc12	106%[activator]
O=C(COc1ccc(F)cc1)N1CCOc2ccc(N3CCOCC3)cc2C1	-22%
COc1ccc(-n2ncc(C(=O)NCc3cccs3)c2C2CCN(C(=O)OC(C)(C)C)CC2)cc1	-10%
COCC(=O)N1CCC[C@@H]1C(=O)N1CCC(N2CCOC2=O)CC1	4%[39.2 µM]
O=[S+]([O-])(Nc1ccccc1)c1ccc2c(c1)OCCN(Cc1cocn1)C2	i
COc1ccc(NC(=O)CCN2CCN(c3cccc(Cl)c3)CC2)cc1	-10%
COc1ccc2c(c1)C=C(CN1CCCC(O)(CN(C)C)C1)CO2 (stereo not drawn)	-3%
CCOC(=O)c1ccc(-c2ccc3ncnc(NCc4csc(C)n4)c3c2)o1	4%
Cc1cc(C)nc(NS(=O)(=O)c2ccc(NC(=O)c3ccccc3O)cc2)n1	-14%
CCOc1ccc2c(c1)[C@@H]1C=CC[C@@H]1[C@H](c1ccccc1Cl)N2	7%
CC[C@H]1CN(C(=O)C(C)(C)C)CC[C@H]1CC(=O)NCc1cccnc1	-4%[39.2 µM]
COc1cccc(NC(=O)Cn2nnc(C(=O)NCCc3ccccc3)c2N)c1	-26%
COc1cc(OC)c(C(=O)N2CCC3(CC2)[C@H](O)C[C@@H]3OC)cc1OC	0%
CC1(C)CC[C@]2(C(=O)O[C@@H]3O[C@H](CO)[C@@H](O)[C@H](O)[C@H]3O)CC[C@]3(C)C(=CCC4[C@@]5(C)C[C@@H](O)[C@H](O)C(C)(C)C5CC[C@]43C)C2[C@@H]1O (stereo partly drawn)	33%[10 µM]
O=c1[nH]cnc2[nH]ncc12	-22%
CC(C)N1CCC(N2C[C@@H](CO)[C@H](c3nc(C4CC4)no3)C2)CC1	-3%
Clc1cccc(-c2ccc3ncnc(NCc4cccnc4)c3c2)c1	-3%
CC(C)CCC[C@@H](C)[C@H]1CC[C@H]2[C@@H]3CC=C4C[C@@H](OC(=O)NCCN(C)C)CC[C@]4(C)[C@H]3CC[C@]12C	90%[activator]
CN(C)c1cnc2c(O)cccc2c1	i
O=C(OC[C@H]1O[C@@H](OC(=O)c2cc(O)c(O)c(O)c2)[C@H](OC(=O)c2cc(O)c(O)c(O)c2)[C@@H](OC(=O)c2cc(O)c(O)c(O)c2)[C@@H]1OC(=O)c1cc(O)c(O)c(O)c1)c1cc(O)c(O)c(O)c1	49%[activator]
CC(C)C(=O)OC[C@@]1(N=[N+]=[N-])O[C@@H](n2ccc(N)nc2=O)[C@H](OC(=O)C(C)C)[C@@H]1OC(=O)C(C)C	?
CCOc1ccc(NC(=O)c2ccc(-c3nc4ccccc4[nH]3)cc2)cc1Cl	1%
CCCCOC(=O)c1ccc(OC(=O)c2sc3ncn(Cc4ccccc4Cl)c(=O)c3c2C)cc1	-15%
Cc1ccc(C(C)C)c(OCC(=O)Nc2cccc(NC(=O)c3ccco3)c2)c1	-4%
C#CCN(Cc1nc(-c2ccccc2OCC)oc1C)C1CCCCC1	i
Cc1c(C(=O)N(C)Cc2ccccc2)sc2nc(-c3ccc(F)cc3)cn12	-14%
CCC1=Nc2cc(C(=O)NC(C)c3ccccc3)ccc2Sc2ccc(Cl)cc21 (stereo not drawn)	-15%
O=C(O)C[C@@H]1CCN(C(=O)C2CCCC2)C[C@@H]1CCN1CCCCC1	-5%[39.2 µM]
COc1ccc2c(CNC3CCCCCC3)c(C(=O)O)n(Cc3ccccc3F)c2c1	-12%
Cc1cnc(C(=O)N2CCC3(CC2)CCC(O)(CN(C)C)CC3)cn1	-1%

The final five entries of the section before lead into the next:
SMILES	nsP2pro inh
Cc1c(C(=O)N(C)Cc2ccccc2)sc2nc(-c3ccc(F)cc3)cn12	-14%
CCC1=Nc2cc(C(=O)NC(C)c3ccccc3)ccc2Sc2ccc(Cl)cc21 (stereo not drawn)	-15%
O=C(O)C[C@@H]1CCN(C(=O)C2CCCC2)C[C@@H]1CCN1CCCCC1	-5%[39.2 µM]
COc1ccc2c(CNC3CCCCCC3)c(C(=O)O)n(Cc3ccccc3F)c2c1	-12%
Cc1cnc(C(=O)N2CCC3(CC2)CCC(O)(CN(C)C)CC3)cn1	-1%
Clc1ccc2nc(-c3ccc(N4CCOCC4)cc3)c(Nc3ccccc3)n2c1	-15%
COc1ccc(Nc2nc(C#N)nc(NC3CCCC3)n2)cc1	i
Cc1ccc(Cl)cc1N1CCN(C(=O)Cn2cnc3nc4c(cc3c2=O)CCCC4)CC1	-9%
O=C1CC2(CCN(C(=O)c3ccccn3)C2)Nc2ccccc2N1 (stereo not drawn)	-17%
Cc1c(C(=O)OCC2CCCCO2)[nH]c2c1C(=O)CC(c1ccco1)C2 (stereo not drawn)	7.9µM*
O=C(NC(c1ccco1)c1cc(Cl)c2cccnc2c1O)c1ccc(F)c(F)c1 (stereo not drawn)	i
CC(C)Oc1ccc(CNC(=O)C2CCN(c3nc4ccccc4n(C)c3=O)CC2)cc1	-22%
CC(CCc1ccccc1)NCC(O)c1ccc(O)c(C(N)=O)c1 (stereo not drawn)	?
O=C(NCc1cccnc1)[C@@H]1C[C@@H](O)CN1C1CCN(C(=O)c2cc3ccccc3[nH]2)CC1	-7%
COCCn1ncc(N2CCC(C(=O)NCCCN3CCC(N4CCCCC4)CC3)C2)cc1=O (stereo not drawn)	i
FC(F)(F)c1ccccc1-c1nc2c(c(NCc3ccc(-c4cccnc4)cc3)n1)CCC2	i
OC[C@H]1O[C@H](O[C@]2(CCl)O[C@H](CCl)[C@@H](O)[C@@H]2O)[C@H](O)[C@@H](O)[C@H]1Cl	-5%&4%
COc1ccc(CN2CC3(CCN(S(=O)(=O)c4c(C)nn(C)c4C)CC3)C2=O)cc1	-12%
CC(=O)Nc1oc(-c2cccc3ccccc23)nc1C#N	-1%
Cc1nc2ccccn2c(=O)c1NC(=O)c1ccc(F)c(F)c1	-5%
Cc1ccc2c(CC(=O)Nc3ccc(S(=O)(=O)N4CCCCC4C)cc3)coc2c1C (stereo not drawn)	-22%
CC(C)OC(=O)[C@H](C)N[P@](=O)(OC[C@H]1O[C@@H](n2ccc(=O)[nH]c2=O)[C@](C)(F)[C@@H]1O)Oc1ccccc1	5%
Cc1nn(CC(=O)NCC(C)c2ccccc2)c(=O)c2cc3ccccc3n12 (stereo not drawn)	-20%
c1nc(NCCCN2CCCCC2)c2cc(-c3ccc4c(c3)OCO4)ccc2n1	i
